Anthrax LT inh: anthrax lethal toxin internalization inhibition | Cells, anthrax lethal toxin internalization, FRET ratio (460/530) | Potency, µM (series often up to 40 µM), for inactives: top-dose activity change, negative = inhibition, usual class: inhibitors | 70,000 tested, 0.67% active | AID 912; active = well fitted falling ratio curve with the 530 nm signal flat; inconclusive = other ratio curves, or a change in one channel alone; inactive = flat curves in the ratio and both channels; the % refers to the ratio; further: on the % scale 0 is the no-effect control and ±100 the full control effect; nearly all actives have a fitted effect of over 50% in size; tested in ME-180 cells; beta-lactamase reporter
SmPrx2 inh: inhibitors of Schistosoma mansoni peroxiredoxin 2; S. mansoni Prx2 activity coupled to TGR/GSH (TGR is thioredoxin glutathione reductase), NADPH fluorescence loss, qHTS; some inactives read as strong as hits; Potency, µM; 65,000 tested, 0.07% active; AID 448; active means full or partial inhibition curve with a strong effect at the top dose; inconclusive means weaker partial or single-point curve; inactive means no accepted curve; further: series up to 57 µM; many of its hits are not listed in these tables
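qHTS, coupled TGR/Prx2 format; 15 min compound preincubation at RT; reaction started with H2O2 (2.5 mM aliquot); kinetic NADPH fluorescence decrease, ex 365/em 450 nm.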
Active calls of the source: *; ? = inconclusive; nt = not tested or not shown; & = joins results of further samples; ! = not active in a repeat; [ ] = dose if it differs, or a comment. Potency means the concentration at half of the fitted maximal effect.

1: CCOc1ccc(-n2ccnc2SCC(=O)Nc2nnc(CC)s2)cc1
2: CC(=O)OC[C@H]1O[C@@H](O/N=C(\C)CCN2CCc3nc(-c4ccccc4)c(-c4ccccc4)cc3C2)[C@H](OC(C)=O)[C@@H](OC(C)=O)[C@H]1OC(C)=O
3: O=C(NCC1CCCO1)c1ccc(C(=O)NCC2CCCO2)cc1 (centres undefined)
4: COc1ccc(C(=O)Nc2ccc(-c3cn4ccsc4n3)cc2)cc1S(=O)(=O)N1CCOCC1
5: CSc1nc2ccc(Nc3nc(N4CCOCC4)nc(N4CCOCC4)n3)cc2s1
6: COC(=O)C1=C(C)N(C)C(C)=C(C(=O)OC)C1c1ccccc1C
7: NC(=O)C1CCN(C(=O)C2CCN(S(=O)(=O)c3ccccc3)CC2)CC1
8: O=C(Nc1cccc(F)c1)N1CCCC2(CCN(C(=O)c3ccncc3)CC2)C1
9: CCCCCCSc1nsc(NC(C)=O)n1
10: COC(=O)CN(c1ccc2c(c1)OCCO2)S(=O)(=O)c1ccccc1
compound no.,1,2,3,4,5,6,7,8,9,10
Anthrax LT inh,-2.3%,-13.2%[8 µM],3.8%,-17.3%,?,-8.9%,?,9.3%,?,-10.0%
SmPrx2 inh,>57,nt,>57,?,>57,>57,>57,>57,>57,>57

11: O=C(CC1(O)C(=O)N(C/C=C/c2ccccc2)c2ccccc21)c1ccccn1 (centres undefined)
12: COCCn1c(=O)c(CCc2ccccc2)nc2cnc(N3CCN(C)CC3)nc21
13: CC(C)=CCC/C(C)=C/CO/N=C1/C[C@@H](O)[C@@H](O)[C@@H]2[C@@H]3C(=O)N(C4CCCCC4)C(=O)[C@H]3CC[C@H]12
14: COC(=O)c1ccccc1N1C(=O)C2C(C1=O)[C@H]1C=C[C@@H]2C1 (some centres undefined)
15: O=C(Nc1ccc2nc(-c3ccc(Br)o3)[nH]c2c1)c1ccco1
16: COc1cccc(NC(=O)N2CCC(C(=O)Nc3ccc(C)cc3C)CC2)c1
17: COC(=O)C1(CC(C)C)C=C2C(=C(C)C(=O)C2C)CN1 (centres undefined)
18: CCn1ccnc1C(O)c1cccc(OC)c1 (centres undefined)
19: CC(C)(C)NC(=O)c1cccc(NC(=O)c2ccc(NC(=O)c3ccco3)cc2)c1
20: CCOC(=O)c1ccc(COC(=O)CCc2nc3ccccc3[nH]c2=O)o1
compound no.,11,12,13,14,15,16,17,18,19,20
Anthrax LT inh,?,-1.9%,10.7%[1.6 µM],nt,-10.1%,-1.8%,-10.2%,8.0%,?,-4.8%
SmPrx2 inh,>57,>57,nt,>57,>57,>57,>57,nt,>57,>57

The list goes on, overlapping the part above by 4 compounds.
17: COC(=O)C1(CC(C)C)C=C2C(=C(C)C(=O)C2C)CN1 (centres undefined)
18: CCn1ccnc1C(O)c1cccc(OC)c1 (centres undefined)
19: CC(C)(C)NC(=O)c1cccc(NC(=O)c2ccc(NC(=O)c3ccco3)cc2)c1
20: CCOC(=O)c1ccc(COC(=O)CCc2nc3ccccc3[nH]c2=O)o1
21: Cc1cc2c(cc1C)NC1(C(=O)Nc3ccccc31)C1=C(CC(C)(C)CC1=O)N2 (centres undefined)
22: COc1ccc(N2CCN(C(=O)CN3C(=O)C4CC=CCC4C3=O)CC2)cc1 (centres undefined)
23: Nc1c(C(=O)NC2CC2)c2nc3ccccc3nc2n1-c1ccc2c(c1)OCO2
24: O=C(NC1CCCCCCC1)C1CCCN(S(=O)(=O)c2cnc[nH]2)C1 (centres undefined)
25: CCOc1ccc(CCNC(=O)C2CCN(c3nnc(-n4cccc4)s3)CC2)cc1OCC
26: COC(=O)NC(/C(C(=O)OC)=C(\C)NCc1ccccc1)c1ccc(F)cc1 (centres undefined)
27: O=C(C1CC(=O)N(C2CCCC2)C1)N1CCN(c2ccc(F)cc2)CC1 (centres undefined)
28: O=c1[nH]c(=O)n(-c2cccc(Cl)c2)c(O)c1/C=N/c1ccccn1
29: Cc1ccc(-c2cc(C(F)(F)F)n3ncc(C(=O)NCc4ccco4)c3n2)cc1
30: COc1ccc(NS(=O)(=O)c2ccc3oc(Nc4ccc5c(c4)OCCO5)nc3c2)cc1
compound no.,17,18,19,20,21,22,23,24,25,26,27,28,29,30
Anthrax LT inh,-10.2%,8.0%,?,-4.8%,6.6%,4.8%,?,5.4%,?,-27.9%[8 µM],-1.1%,0.0%,-10.7%,12.6µM*
SmPrx2 inh,>57,nt,>57,>57,nt,>57,>57,>57,>57,nt,>57,>57,nt,>57

Along the list, quoted from above:
Anthrax LT inh, compounds 21 to 26, in order: 6.6%, 4.8%, ?, 5.4%, ?, -27.9%[8 µM]

Later entries
31: N#Cc1c(N)nc(SCC(=O)NC2CCCCC2)c(C#N)c1-c1ccc(Cl)cc1
32: Cn1c2ccccc2c2nnc(SCc3ccc4nonc4c3)nc21
33: COc1ccc(NS(=O)(=O)c2c(C)[nH]c(=O)[nH]c2=O)c(OC)c1
34: Cn1nnnc1SCC(=O)NC(=O)Cc1ccccc1
35: CC1(C)N=C(N)N=C(N)N1c1cccc(CSc2ccccc2)c1
36: O=C(NCCN1C(=O)CCC1=O)c1ccncc1
37: CCN1CCN(c2ncnc3c2sc(=S)n3-c2ccccc2)CC1
38: CCOc1ccc(-n2cc(C(=O)N3CCN(C)CC3)c3cc(OC)c(OC)cc3c2=O)cc1
39: CN(C)CCCNC(=O)CC(c1ccc(F)cc1)c1ccco1 (centres undefined)
40: COc1ccc(-c2nc3cnc(Nc4ccccc4)nc3n(Cc3cccs3)c2=O)cc1
compound no.,31,32,33,34,35,36,37,38,39,40
Anthrax LT inh,-8.0%,-2.5%,13.8%,1.6%,-2.0%[8 µM],-15.8%,-1.5%,11.6%,4.2%,?
SmPrx2 inh,>57,>57,>57,>57,>57,>57,>57,>57,>57,>57

41: COCCc1ccc(OC[C@H](O)CNC(C)C)cc1
42: COc1ccc(C(=O)N2CCC(C(=O)Nc3cccc(C)c3)CC2)cc1OC
43: CCOC(=O)c1ccc(NC2c3ccccc3C(=O)N2c2cccnc2)cc1 (centres undefined)
44: COC(=O)C1CCN(C(=O)C2CCCCC2)CC1
45: CCNc1ncc2nc(-c3cc(F)cc(F)c3)c(=O)n(Cc3cccs3)c2n1
46: CCOC(=O)c1cnc(SCC(=O)Nc2sc(C)c(C)c2C#N)nc1N
47: COCCNC(=O)c1c[nH]c2ccc(OC)cc2c1=O
48: COc1ccccc1CC(NC(C)=O)C(=O)NC1CCN(c2nnnn2-c2ccccc2)CC1 (centres undefined)
49: Cc1nn(C(=O)c2cccs2)c(N)c1-c1ccccc1
50: COc1ccccc1S(=O)(=O)Cc1ccc(C(=O)NCCN2CCCC2)o1
compound no.,41,42,43,44,45,46,47,48,49,50
Anthrax LT inh,-24.9%[3.58 µM],-1.2%,-4.8%,-5.7%,?,-3.4%,-11.9%,-1.9%,?,-1.4%
SmPrx2 inh,>57&>57,nt,>57,>57,>57,>57,>57,>57,>57,>57

51: COc1ccccc1-c1cc(C(=O)NCc2cccs2)no1
52: CC(C)c1ccc(NC(=O)CSc2nnc(-c3ccccn3)n2C)cc1
53: CCOC(=O)c1ccc(NC(=O)CCc2ccc(CC)o2)cc1
54: CC1(C)N=C(C(=O)c2ccccc2)N(O)C1(C)O (centres undefined)
55: O=c1cc(C(F)(F)F)nc(-c2ccccc2)[nH]1
56: Cc1ccc(CN(c2ccc(C(=O)N3CCOCC3)cc2)S(C)(=O)=O)cc1
57: COc1cc(NC(=O)c2cnn3c(C)cc(C)nc23)c(OC)cc1Cl
58: CC1(C)C2CCC(C2)C1(C)NC(=O)CN1CCOCC1 (centres undefined)
59: COc1ccc(CCNC(=O)C2CCN(S(=O)(=O)c3cccc4nsnc34)CC2)cc1OC
60: CC(N=C1NS(=O)(=O)c2ccccc21)c1ccccc1 (centres undefined)
compound no.,51,52,53,54,55,56,57,58,59,60
Anthrax LT inh,-22.9%,-1.3%,-8.2%,5.3%,6.1%,8.0%,-6.8%,2.7%,7.4%,11.5%
SmPrx2 inh,>57,>57,>57,>57,nt,nt,>57,>57,>57,nt

61: CN1CCN(CCCN2c3ccccc3Sc3ccc(C(F)(F)F)cc32)CC1
62: CCNc1ncc2nc(-c3cccc(C#N)c3)c(=O)n(CCC#N)c2n1
63: NC(=NC1C2CC3CC(C2)CC1C3)Nc1ccc(I)cc1 (centres undefined)
64: Cc1ccc(OCn2c(=O)sc3ccccc32)cc1
65: N#CCCn1c(=O)cnc2cnc(OCc3ccccc3)nc21
66: CCCCCc1c(O)c2ccccc2[nH]c1=O
67: CCCn1c(SCC(=O)NCCc2ccc(Cl)cc2Cl)n[nH]c1=O
68: COc1cccc(-c2cc(C(F)(F)F)n3nc(C(=O)N4CCC5(CC4)OCCO5)cc3n2)c1
69: COc1ccc(CCN2CC34C=CC(O3)C(C(=O)NCc3ccccc3)C4C2=O)cc1OC (centres undefined)
70: Cc1ccc(CNC(=O)c2ccc(CN3CCOCC3)cc2)cc1
compound no.,61,62,63,64,65,66,67,68,69,70
Anthrax LT inh,10µM*!,?,?,?,-2.8%,-2.2%,-11.1%,-14.5%,7.6%,19.1%
SmPrx2 inh,>57&>57&>57,>57,>57,>57,>57,>57,>57,>57,>57,nt

71: CCC1CCC(NC2CCCCNC2=O)CC1 (centres undefined)
72: COc1cc(C2SCCCCCCCCCCSC(c3ccc(O)c(OC)c3)SCCCCCCCCCCS2)ccc1O (centres undefined)
73: COc1ccccc1-c1nccc(-n2ccnc2)n1
74: COc1ccc2[nH]c3c(NCCN4CCCCC4)ncnc3c2c1
75: CC12CCC(C(=O)NCCN3CCCCC3)(CC1=O)C2(C)C (centres undefined)
76: COc1ccc(-n2c(Cc3cccn3C)nnc2SCC(=O)Nc2ccccc2C)cc1
77: COc1ccccc1N1CCN(C(=O)CN(c2cc(C)cc(C)c2)S(C)(=O)=O)CC1
78: CCOC(=O)C(CC)n1cnc2c(cnn2-c2ccc(Cl)cc2)c1=O (centres undefined)
79: O=C(c1cn(CC(=O)N2CCCC2)c2ccccc12)C1CCCCC1
80: O=C(CCCCCN1C(=O)CCC1=O)Nc1ncn[nH]1
compound no.,71,72,73,74,75,76,77,78,79,80
Anthrax LT inh,6.6%,-15.8%[8 µM],9.1%,?,-6.0%,-4.8%,-14.2%,7.2%,16.5%,2.5%
SmPrx2 inh,>57,>57,>57,>57,>57,>57,>57,>57,>57,>57

81: Nc1ccc(-n2c(N)c(C(=O)NCc3ccc4c(c3)OCO4)c3nc4ccccc4nc32)cc1
82: Cc1cccn2c(=O)c(C=Nc3ccccc3)c(NCCO)nc12
83: CC(=O)CC(C)C
84: O=C(OCc1nc(-c2ccccc2)oc1COC(=O)c1ccco1)c1ccco1
85: CC(C)OCCCNc1nc2c([nH]1)c(=O)n(C)c(=O)n2C
86: COc1ccc(-c2cc(C(=O)N3CCN(c4ccccn4)CC3)c3ccccc3n2)cc1
87: Cc1cccc(NC(=O)CN2CCCN(S(=O)(=O)c3ccc(Br)s3)CC2)c1
88: COc1cccc(NC(=O)COc2ccc(N3CC(C(=O)NCC(C)C)CC3=O)cc2)c1 (centres undefined)
89: CCC1(CC)C(=O)N(C)C(=O)NC1=NCc1ccccc1
90: CCc1nnc(NC2=NCCC2)s1
compound no.,81,82,83,84,85,86,87,88,89,90
Anthrax LT inh,15.1%,-10.7%,3.4%,1.6%,4.6%,?,-13.3%,8.7%,5.0%,-11.2%
SmPrx2 inh,>57,>57,nt,>57,>57,>57,>57,>57,>57,>57

91: Cc1noc(C)c1C(=O)N1CCC2(CCN(C(=O)Nc3ccccc3)CC2)CC1
92: O=C(NCc1ccco1)C1(c2ccccc2)CCCC1
93: c1cncc(-c2noc(C34CC5CC(CC(C5)C3)C4)n2)c1
94: COc1ccc(OCc2nn3c(-c4ccco4)nnc3s2)cc1
95: Cc1ccc2c(c1)nnn2C1CCN(CC(=O)Nc2ccccc2N2CCOCC2)CC1
compound no.,91,92,93,94,95
Anthrax LT inh,7.3%,-22.1%,-28.1%,?,-23.4%
SmPrx2 inh,>57,>57,>57,>57,>57

Copied from above: nos. 93 to 95
93: c1cncc(-c2noc(C34CC5CC(CC(C5)C3)C4)n2)c1
94: COc1ccc(OCc2nn3c(-c4ccco4)nnc3s2)cc1
95: Cc1ccc2c(c1)nnn2C1CCN(CC(=O)Nc2ccccc2N2CCOCC2)CC1
compound no.,93,94,95
Anthrax LT inh,-28.1%,?,-23.4%
SmPrx2 inh,>57,>57,>57

Screening data as filed in PubChem.

Not all compounds are listed. The share of hits here may be higher or lower than overall.
